Compound activity from PubChem.
VDR inh = blocks the human vitamin D receptor. P11473. VDR-SRC2-3 peptide fluorescence polarization, 2 h. Potency, µM, for inactives: max response, negative = inhibition, actives largely listed as inhibitors. actives 0.93% (n = 400,000). AID 504847; active means well fitted inhibition curve with a large enough effect; inconclusive means small, poorly fitted or top-dose-only effect, or another doubt; inactive means no such curve, though single readings can be large or run the other way; further: series mostly up to about 120 µM
Target sequence (P11473 whole entry, looked up): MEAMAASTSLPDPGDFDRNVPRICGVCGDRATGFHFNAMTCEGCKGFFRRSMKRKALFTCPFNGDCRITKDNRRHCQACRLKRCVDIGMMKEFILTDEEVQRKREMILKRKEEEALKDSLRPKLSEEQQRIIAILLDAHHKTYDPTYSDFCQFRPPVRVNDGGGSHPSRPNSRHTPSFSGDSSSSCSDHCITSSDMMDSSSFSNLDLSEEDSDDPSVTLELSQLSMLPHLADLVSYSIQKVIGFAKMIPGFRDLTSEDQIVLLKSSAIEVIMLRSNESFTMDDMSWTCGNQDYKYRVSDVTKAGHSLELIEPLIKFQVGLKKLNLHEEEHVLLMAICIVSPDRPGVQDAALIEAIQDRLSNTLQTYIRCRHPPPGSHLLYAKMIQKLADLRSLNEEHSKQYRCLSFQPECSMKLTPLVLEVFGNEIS
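Measured by FP: displacement of SRC2-3 coactivator peptide from VDR by library compounds, following a two-hour ambient incubation.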
Starred values were filed as active, the others as inactive; ? = inconclusive; & = joins results of further samples; ! = a repeat was not active. On the % scale 0 is the no-effect control and ±100 the full control effect; potency means the concentration at half of the fitted maximal effect.

Compound	VDR inh
CCNC(=O)CC1C(=O)N(c2ccc(F)cc2)C(=S)N1CCc1ccncc1 (stereo not drawn)	0%
CC1CCN(C(c2ccc(N(C)C)cc2)c2nnnn2C(C)(C)C)CC1 (stereo not drawn)	50µM*
Cc1ccc(OCC(=O)NN=C2C3CC4CC(C3)CC2C4)cc1	-26%
Cc1ccc(CSCCNC(=O)c2ccc(C)cc2)cc1	4%
COc1ccc(-n2c(C)cc(C(=O)CN3CCC(C)CC3)c2C)cc1	-4%
Cc1ccc(N2C(=O)C(O)(C(F)(F)F)C3=C2CC(C)(C)CC3=O)cc1C (stereo not drawn)	4%
Cc1cc(C)nc(Sc2c(C)n[nH]c2C)n1	15%
Cc1ccc(N2C(=O)CC(N3CCN(C4CCc5ccccc5C4)CC3)C2=O)cc1 (stereo not drawn)	6%
Cc1nn(-c2ccccc2)c(N2CCCC2)c1/C=N/NC(=O)c1cc(-c2ccccc2)nc2ccccc12	-1%
O=C(CCCn1c(=O)[nH]c2ccccc2c1=O)NCc1ccccc1Cl	7%
COc1cc(C(=O)NC(=S)Nc2ccc([N+](=O)[O-])cc2C)cc(OC)c1OC	-14%
COc1ccc(/C(C)=N/OC/C(O)=C(\C#N)c2nc3ccccc3[nH]2)c(OC)c1	-4%
N#C/C(=C(/O)c1ccc([N+](=O)[O-])cc1)c1nnc2n1CCCCC2	13%
O=C(N[C@@H](Cc1ccccc1)C(=O)O)c1cccs1	-9%
O=C(NCc1cccc(F)c1)C1=Cc2cc(Br)ccc2OC1	5%
CC(C)OCCCNC(=O)Cn1ccc2cc(S(=O)(=O)N3CCCCCC3)ccc21	-4%&1%
CCOC(=O)c1c(-c2ccc(C)cc2)csc1NC(=O)c1ccc(N2C(=O)CCC2=O)cc1	-10%
N#C/C(=C\c1ccc2c(c1)OCCO2)C(=O)Nc1ccc(C(=O)O)cc1	2%
COc1ccccc1-c1n[nH]c(=S)n1-c1ccccc1	-3%
Cc1cc(NC(=O)COc2ccc3ccccc3c2Br)no1	-29%
CCn1c(/C=C/c2c(C)n(CC)c3ccccc23)nc2ccccc2c1=O	-7%
O=c1c2cc3c(nc2[nH]c(=S)n1-c1ccccc1)CCCC3	1%
Cc1ccc(NC(=O)CCn2cccn2)cc1Cl	-3%
Cc1ccc(C(=O)NC(=S)NCc2cccnc2)cc1	-6%
Cc1ccc(S(=O)(=O)N2CCN(C(=O)Cn3c(=O)oc4ccccc43)CC2)c(C)c1	-9%
CCOc1ccc(Nc2ccc([N+](=O)[O-])c3nonc23)cc1	?
CN1C(C(=O)Nc2ccc(OC(F)(F)F)cc2)=CC(c2ccc3c(c2)OCO3)=NS1(=O)=O	-5%&2%
COc1cccc(-c2cc(C(=O)NCc3ccccc3)no2)c1	-7%
CC(C)(C)n1nnnc1C(c1cccnc1)N(Cc1ccccc1)Cc1cccs1 (stereo not drawn)	-8%
CCCC(C(=O)NC(C)(C)CC)N(Cc1ccco1)C(=O)CNS(=O)(=O)c1ccccc1 (stereo not drawn)	-1%
CS(=O)(=O)c1ccc(Cl)c(C(=O)NCC2CCCCC2)c1	-9%
Cn1c(=O)n(C)c2cc(C(=O)c3ccccc3)ccc21	6%
Cc1[nH]c(C)c(S(=O)(=O)N(Cc2ccccc2)C(C)C)c1C(=O)N1CCCC1	1%
O=C(CCCn1nnnc1CN1CCOCC1)N1CCC(c2ccccc2F)C1 (stereo not drawn)	-9%
O=C(Cc1cnc2ncnn2c1)N1CCc2c([nH]c3ccccc23)C1c1ccccn1 (stereo not drawn)	8%
CCCCC[C@@H]1C=C(C(=O)O)[C@H](c2ccc(OC)c(OC)c2)N1S(=O)(=O)c1ccc(C)cc1	-9%
Cc1cs/c(=N\N=C\c2ccc(O)cc2)n1Cc1ccco1	0%
O=C(c1cnc2ccc(Cl)cc2c1Cl)N1CCOCC1	-10%
O=C(Nc1ncc(Cc2cc(Cl)ccc2Cl)s1)c1ccc([N+](=O)[O-])cc1	-14%
O=C(CC(CC(=O)c1ccccc1)C(=O)O)c1ccccc1	20%
CCN(c1ccccc1)S(=O)(=O)c1cccc(C(=O)NCC2(N(C)C)CCCCC2)c1	-10%
COc1ccc(S(=O)(=O)N2CCN(Cc3c[nH]c4ccccc34)CC2)cc1	16%
CC(NCc1ccc(OCc2ccc(Cl)cc2)cc1)C(O)c1ccccc1 (stereo not drawn)	-7%
Nc1c2c(nc3ccn(-c4ccccc4)c(=O)c13)CCCCC2	-15%
Cc1cc(C)c(S(=O)(=O)N2CCC(C(=O)OCc3c(C)noc3C)CC2)c(C)c1	-1%
COC(=O)c1cc(NC(=O)Cc2ccccc2[N+](=O)[O-])cc(C(=O)OC)c1	7%
COC(=O)c1ccc(NC(=O)c2nc(-c3ccc(Cl)cc3)n3c2CCCCC3)cc1	-3%
Cc1ccc(C(=O)CSc2ncnc3sc4c(c23)CCCC4)cc1	10%
O=C(c1ccc(COc2ccccc2Cl)o1)N1CCOCC1	9%
Cc1cc(Cl)ccc1NS(=O)(=O)c1c(C(=O)N2CCCCCC2)c(C)n(C)c1C	-11%
COc1ccc(CCN2C(=O)c3[nH]nc(-c4ccccc4O)c3C2c2ccc(C)cc2)cc1OC (stereo not drawn)	-18%
O=C(NNC(=S)NC1CCCCC1)c1ccccc1Cl	27%
Cc1ccc(OCCn2cccn2)c(C)c1	18%
CCc1c(C(=O)N/N=C/c2cccs2)nnn1-c1nonc1N	-5%
Cn1c(=O)oc2cc(S(=O)(=O)NCCN3CCN(c4ccccc4)CC3)ccc21	-7%
CCn1c(SCC(=O)Nc2ccc(OC)c(OC)c2)nnc1-c1cccs1	17%
Cn1c(=O)[nH]c(=O)c2c1nc(N1CCCC1)n2CCCSc1nc2ccccc2o1	-10%
CCSc1nc(CC)c2c(c1C#N)CCCC2	-8%
COc1ccccc1-c1c(C)nn2c(C)cc(C)nc12	-9%
Cc1ccc(N2CCCn3c2cc(C)c(C#N)c3=O)cc1C	-6%

More compounds follow:
Compound	VDR inh
COc1ccc(NC(=O)CN(C)C(=O)C(NC(=O)c2ccco2)C(C)C)cc1 (stereo not drawn)	-4%
Cc1ccc(/C=N/NC(=O)c2nnn(-c3nonc3N)c2CSc2ccccc2)cc1	-15%
FC(F)(F)c1ccccc1CN1CCCC(N2CCN(c3ccccc3)CC2)C1 (stereo not drawn)	-4%
CC(C)N1CCN(C2CSCCSC2)CC1CCO (stereo not drawn)	7%
COc1cccc(NC(=O)Cc2csc(NC(=O)Nc3ccccc3OC)n2)c1	-16%
Cc1cccn2c(=O)nc(SCC(=O)N3CCN(c4ccccc4)CC3)nc12	-14%
CNC(=O)CN(c1cccc2ccccc12)S(C)(=O)=O	-1%
CCOC(=O)c1cocc1C(=O)O	9%
CCCCc1cc(=O)oc2cc(OC(C)C(=O)NCc3ccccn3)c(Cl)cc12 (stereo not drawn)	-2%
COc1cc([C@@H]2[C@H]3CNCC=C3C(C#N)=C(N)C2(C#N)C#N)ccc1OC(C)C	-6%
Oc1cc(CNCc2ccccc2)c(O)cc1CNCc1ccccc1	-27%
S=c1ccss1	20µM*
CCN(CC)S(=O)(=O)c1ccc(N2CCCC2)c(NS(=O)(=O)c2ccc([N+](=O)[O-])cc2)c1	-15%
O=C(NNC(=O)C1CC1c1ccccc1)c1ccccc1F (stereo not drawn)	21%
O=C(N/N=C/c1ccccc1F)c1ccccc1OCc1ccccc1	-11%
O=C(COc1cccc(NC(=O)c2ccccc2)c1)c1ccccc1	6%
CC1CCc2c(sc(NS(=O)(=O)c3ccccc3)c2C(=O)OC(C)C)C1 (stereo not drawn)	?
CCOc1ccc2nnc(-c3ccc(Br)cc3)n2n1	-19%
O=C(NCc1ccccc1Cl)c1ccc(Cn2c(=O)c3cccn3c3cccnc32)cc1	1%
CC1=CS(=O)(=O)CC1Sc1nc(C)n[nH]1 (stereo not drawn)	9%
COc1ccc(-n2nc(C(=O)NCC(=O)NC3CCCCC3)c3ccccc3c2=O)cc1	-14%
COCCCNc1ncnc2c1nnn2C	3%
CCOC(=O)N1CCN(c2nc(C(F)(F)F)nc3c(C)cc(C)cc23)CC1	-6%
O=C(Cn1ccc(C(F)(F)F)n1)Nc1cccc(S(=O)(=O)N2CCCCC2)c1	11%
CCc1ccccc1-n1c(SCC(=O)c2c(N)n(C3CC3)c(=O)[nH]c2=O)nnc1N1CCOCC1	-17%
COc1cccc(COC(=O)c2ccc(-c3nnn(Cc4cccc(OC)c4)n3)cc2)c1	-5%
CN(C)CCCN1CC(C(=O)O)CC1=O (stereo not drawn)	-10%
Cc1ccc(C2=NN(C(=O)c3cccs3)C(c3ccccc3O)C2)cc1 (stereo not drawn)	13%
COc1ccc(CCC(=O)NCC2CCCCC2)cc1OC	21%
COc1ccccc1OCCn1cc(C(=O)c2cccs2)c2ccccc21	-5%
COc1cc(S(=O)(=O)N(Cc2cccs2)CC2CCCO2)ccc1-n1cnnn1 (stereo not drawn)	-4%
Cc1cc(NC(=O)c2cccs2)ncc1NC(=O)C(C)C	-4%
CCCS(=O)(=O)C/C(N)=N/OC(=O)c1ccccc1Cl	-10%
CCSc1nnc(NC(=O)c2ccc(S(=O)(=O)N(C)C)cc2)s1	-13%
Cc1c(N)cc2c(c1N)C(C)(C)CC2(C)C	9%
CCC(Sc1nc(-c2ccccc2)c(-c2ccccc2)[nH]1)C(=O)O (stereo not drawn)	-15%
Cc1csc(=O)n1CCC(=O)N(C)Cc1c(F)cccc1Cl	2%
Cc1occc1C(=O)Nc1ccccc1NC(=O)c1ccoc1C	-18%
COc1cc(/C=C2\CCC/C(=C\c3ccc(O)c(OC)c3)C2=O)ccc1O	25µM*!
CC(Sc1nnc(Nc2ccccc2F)s1)C(=O)NC1CC1 (stereo not drawn)	10%

The last four entries of the section before come first, to join the parts.
Compound	VDR inh
Cc1csc(=O)n1CCC(=O)N(C)Cc1c(F)cccc1Cl	2%
Cc1occc1C(=O)Nc1ccccc1NC(=O)c1ccoc1C	-18%
COc1cc(/C=C2\CCC/C(=C\c3ccc(O)c(OC)c3)C2=O)ccc1O	25µM*!
CC(Sc1nnc(Nc2ccccc2F)s1)C(=O)NC1CC1 (stereo not drawn)	10%
COc1ccc(N(CC(=O)O)S(=O)(=O)c2ccccc2[N+](=O)[O-])c(OC)c1	-11%
CCOC(=O)c1nn(-c2ccccc2C)c(=O)cc1OCC(=O)N1CCN(c2ccccc2)CC1	-5%
O=C(NC1CCCc2c1cnn2-c1ccc(F)cc1F)c1ccccn1 (stereo not drawn)	-6%
CC1(C)CC(=O)C(C(C2=C(O)CC(C)(C)CC2=O)c2ccc(Cl)c([N+](=O)[O-])c2)C(=O)C1 (stereo not drawn)	0%
C/C(=N\NC(=S)NCc1ccccc1)c1ccc(Cl)cc1	-5%
Cc1ccc(N2/C(=N/c3nc(C)cc(C)n3)NC(=O)CC2C(=O)O)cc1 (stereo not drawn)	-4%
Cc1cc(C)c(NC(=O)c2oc3ccccc3c2COc2ccccc2)c(C)c1	1%
Cc1ccc(OCC(=O)N(C)CC(=O)Nc2cccc(F)c2)cc1	-28%
COc1cccc(CNC(=O)c2cccnc2Sc2ccccc2)c1	5%
O=C(/C=C/c1cccc(F)c1)OCC(=O)N1CCCc2ccccc21	7%
CN1CCC[C@H]1CCNC(=O)c1c(-c2ccsc2)sc2ccccc12	9%
COc1ccc(S(=O)(=O)NCCSc2ccc(Cl)cc2)cc1OC	2%
C/C(=N\O)c1c(C)c2ccccc2n1C	-18%
Oc1ccccc1Nc1nc(NCC2CCCO2)c2ccccc2n1 (stereo not drawn)	6%
COc1ccc(-c2[nH]ncc2CN2CCCO2)c(F)c1	-17%
COc1ccc(C)cc1NC(=O)c1ccc(S(=O)(=O)N2CCCCC2)cc1	6%
CCN(C(=O)CSc1nccc(=O)[nH]1)c1cccc2ccccc12	-3%
Cc1csc2nc(CNC(=O)c3ccco3)cn12	7%
COc1ccc(NC(=O)CSC2=Nc3ccccc3C3=NC(CCC(=O)NCCc4ccccc4)C(=O)N23)cc1 (stereo not drawn)	-3%
CCCOc1ccc(/C=C/C(=O)Nc2ccc([N+](=O)[O-])cc2)cc1	-15%

Exported as labelled records: part of the list above
Cc1ccc(N2/C(=N/c3nc(C)cc(C)n3)NC(=O)CC2C(=O)O)cc1 (stereo not drawn)
  VDR inh = -4%

Cc1cc(C)c(NC(=O)c2oc3ccccc3c2COc2ccccc2)c(C)c1
  VDR inh = 1%

Cc1ccc(OCC(=O)N(C)CC(=O)Nc2cccc(F)c2)cc1
  VDR inh = -28%

COc1cccc(CNC(=O)c2cccnc2Sc2ccccc2)c1
  VDR inh = 5%

Following part:
Compound	VDR inh
COc1ccc(CNC(=O)N[C@@H](CC(C)C)C(=O)O)cc1OC	-18%
O=P(O)(O)C(O)(Cn1ccnc1)P(=O)(O)O	8%
CN(N=C(c1ccccc1)c1ccccc1)c1ccccc1	6%
O=C(c1ccc2oc(Cc3ccc(Cl)cc3)nc2c1)N1CCCCC1CCO (stereo not drawn)	-1%
Cc1ccc(S(=O)(=O)c2nc(-c3cccs3)oc2SC(C)C)cc1	-2%
CC(=O)Nc1sc(C)c(C)c1C(=O)OC(C)C	-5%
O=C(Cn1ncc2c(=O)oc3ccccc3c21)N(Cc1ccco1)C1CCCCC1	-27%
CN1C(=O)Cc2cc(S(=O)(=O)CCC(=O)N3CCN(c4ccccc4F)CC3)ccc21	4%

A portion of the library. The share of hits here may be higher or lower than overall.
